Compound activity deposited in PubChem by National Center for Advancing Translational Sciences (NCATS).
TRPML1 ag – activates the human TRPML1 channel | Q9GZU1 | TRPML1-expressing cells, Ca2+ dye fluorescence, FDSS; host cell line not named in the record; reference of the full effect not given here | activation, % (concentration not given with the values) | 410,000 tested, 0.12% active | AID 624414; in the data active = activation above about 50%; inconclusive = about 30% to 50%; inactive = below about 30%; note: 0% is about no effect; the text of the record puts the active cut at 80%
Target sequence (Q9GZU1 whole entry, looked up): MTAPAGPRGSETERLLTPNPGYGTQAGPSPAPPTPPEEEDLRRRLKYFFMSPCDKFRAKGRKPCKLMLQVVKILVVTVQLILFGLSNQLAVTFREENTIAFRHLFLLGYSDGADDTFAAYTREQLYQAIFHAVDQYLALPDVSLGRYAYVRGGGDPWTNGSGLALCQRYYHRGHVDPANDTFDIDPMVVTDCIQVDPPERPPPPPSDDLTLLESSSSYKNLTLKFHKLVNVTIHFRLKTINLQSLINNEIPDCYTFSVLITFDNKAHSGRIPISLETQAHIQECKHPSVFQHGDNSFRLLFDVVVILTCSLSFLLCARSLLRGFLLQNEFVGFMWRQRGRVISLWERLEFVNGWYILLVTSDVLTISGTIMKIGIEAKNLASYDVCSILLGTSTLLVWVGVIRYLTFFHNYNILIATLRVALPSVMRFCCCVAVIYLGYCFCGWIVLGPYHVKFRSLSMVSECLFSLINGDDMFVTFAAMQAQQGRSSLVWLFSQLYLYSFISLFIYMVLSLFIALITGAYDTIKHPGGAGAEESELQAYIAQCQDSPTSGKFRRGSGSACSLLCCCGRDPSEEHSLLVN
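In this qHTS format, compounds were pin-transferred onto Ca8-dye-loaded TRPML1-DL cells induced with Tet overnight, and intracellular Ca2+ fluorescence was recorded kinetically for 110 s after a 10 s baseline. A subsequent 4uM final 54-4 (EC80) addition followed by a second 110 s read served as the antagonist phase.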
CtBP-E1A inh – CtBP/E1A binding inhibition; AlphaScreen GST-E1A/His-CtBP binding, 1536-well; hits give low values; control for the full effect not named in the record; activity change, % (no concentration beside the values); 340,000 tested, 0.49% active; in the data active means activity change below about -65%; inconclusive means about -30% to -65%; inactive means above about -30%; note: % is set by controls: 0 for no effect and ±100 for the full control effect; compound concentration not given in the record
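Steps: dispense buffer (Tris pH 8.0, NaCl 300 mM, TCEP 1 mM, BSA, Tween 20); add 5X protein mix (GST-E1A, His-CtBP, 125 nM each); pin 23 nL compound; 2 h at 37 °C, dark; add 5X beads (50 ug/mL); 1 h; read.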
Six1-Eya2 blk – blocks human Six1 binding to Eya2; activity change, % (test concentration not listed); AlphaScreen GST-Six1/His-Eya2 binding, biochemical; hits give low values; control for the full effect not named in the record; 360,000 tested, 0.56% active; AID 651725; in the data active = activity change below about -65%; inconclusive = about -30% to -65%; inactive = above about -30%; note: % is set by controls: 0 for no effect and ±100 for the full control effect; compound concentration not given in the record
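Homogeneous AlphaScreen proximity assay pairing GST-Six1 with His-tagged Eya2 (added as 5X mix: 250 nM and 500 nM) in 50 mM Tris pH 8.0, 300 mM NaCl, 1 mM TCEP. Glutathione donor and nickel acceptor beads; 1 h, 37 °C, dark.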
D2 agonist – activates the human D2 dopamine receptor. DiscoveRx PathHunter D2 beta-arrestin, luminescence, 90 min; 100% = 57 uM dopamine signal. activation, % (test concentration not listed). 360,000 tested, 0.084% active; in the data active = activation above about 40%; inconclusive = about 15% to 40%; inactive = below about 15%; note: compound concentration not given in the record; the text of the record calls up to 30% inactive
Target sequence (P14416 whole entry, looked up): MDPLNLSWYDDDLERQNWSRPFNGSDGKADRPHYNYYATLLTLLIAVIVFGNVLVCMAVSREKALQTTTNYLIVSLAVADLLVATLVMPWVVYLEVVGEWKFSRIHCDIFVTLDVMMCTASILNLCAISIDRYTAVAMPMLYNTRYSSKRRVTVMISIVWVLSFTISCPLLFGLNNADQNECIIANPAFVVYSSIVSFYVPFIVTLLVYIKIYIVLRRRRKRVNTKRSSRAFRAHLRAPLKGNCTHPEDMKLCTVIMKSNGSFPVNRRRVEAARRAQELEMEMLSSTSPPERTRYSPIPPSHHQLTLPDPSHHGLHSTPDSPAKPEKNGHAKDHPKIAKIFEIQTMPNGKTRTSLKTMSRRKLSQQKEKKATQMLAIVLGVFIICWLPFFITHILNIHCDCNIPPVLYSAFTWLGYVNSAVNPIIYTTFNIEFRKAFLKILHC
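DiscoveRx PathHunter D2 beta-arrestin cells (2,100/well) attached overnight, then compound-stimulated 90 min at 37 C in HBSS/10 mM HEPES/0.1% Tween-20 buffer; beta-galactosidase complementation read by luminescence after 1 h at ambient temperature. Dopamine 57 uM final (EC100) as control.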
D2 PAM – potentiates the human D2 dopamine receptor allosterically; DiscoveRx D2 beta-arrestin cells, luminescence, 90 min; 100% = 57 uM dopamine signal; 360,000 tested, 0.23% active; potentiation, % (concentration not given with the values); P14416; AID 624464; active = potentiation of 50% or more; inconclusive = 30% to 50%; inactive = 30% or less;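 note: compound concentration not given in the record; tested on top of an EC20 dose of dopamine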
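D2 cells co-treated with compound plus 50 nM dopamine (EC20) for 90 min at 37 deg C to detect potentiation. Beta-arrestin recruitment was read as enzyme-fragment luminescence after 1 h at ambient temperature. Full response was set by 57 uM dopamine.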
PINK1 expr mod – modulators of PINK1 expression. PINK1 immunofluorescence, high-content cytometry, 24 h. 410,000 tested, 0.2% active. Potency, µM (doses to about 76.6 µM), inactives show at the top dose activation (PINK1 increase), hits mostly activators; active = well fitted activation curve with a large enough effect; inconclusive = small, poorly fitted or top-dose-only effect; inactive = flat fitted curve, though single readings scatter; cell line not stated here;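 note: potency is the fitted concentration of half-maximal effect; % of control where 0% means no effect; nearly all actives have a fitted effect of over 65% in size; a mitochondrial uncoupler was the plate control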
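PINK1 protein, normally rapidly degraded, was detected by immunofluorescence after 24 hour compound treatment of a stable cell line. Titration data (5 concentrations) came from laser-scanning cytometry, with CCCP-treated wells as controls.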
The depositor's hits bear a star; u = inconclusive; x = no result given; & = joins results of further samples; ! = a repeat was not active; [ ] = remark or other dose.

SMILES,D2 agonist,Six1-Eya2 blk,TRPML1 ag,PINK1 expr mod,D2 PAM,CtBP-E1A inh
Cc1ccccc1CNS(=O)(=O)c1c(C(=O)N2CCCC2)c(C)n(C)c1C,-6.9,0,-0.1,-0.6%,-6,6
CC1CCCCC12NC(=O)N(CC(=O)OCC(=O)Nc1ccc(F)cc1[N+](=O)[O-])C2=O (configuration not stated),u,1,0.2,-0.4%,30,0
O=S(=O)(c1ccccc1)N1N=C(c2ccccc2)CC1c1ccccc1 (configuration not stated),-3.1,6,2.3,-0.3%,0,10
CCOC(=O)C1(Cc2ccccc2C)CCCN(C(=O)CN2C(=O)CSC2=O)C1 (configuration not stated),-5.1,2,-0.8,0.9%,0,0
CC(C)c1ccc(NS(=O)(=O)c2cccc3cccnc23)cc1,-1.7,-24,x,1.9%,2,-9
CCN(CC)c1ccc(C(NC(=O)C(C)C)c2ccc3cccnc3c2O)cc1 (configuration not stated),-5.1,-72*,0.0,0.6%,-14,u
CC(C)n1c(=O)c2ccccc2n1Cc1cn(Cc2cccnc2)nn1,4.0,13,-0.3,0.2%,-12,-19
O=C(Nc1cc(NC(=O)c2ccccc2F)ccc1Cl)c1ccccc1,3.0,10,1.3,6.8%,0,18
Cc1ccccc1OCC(=O)Nc1ccc(S(=O)(=O)N2CCCC2)cc1,3.4,-12,-0.6,2.6%,-1,-3
CC1CCc2nc(N)c(C#N)c(-c3ccncc3)c2C1 (configuration not stated),0.4,4,1.4,-4.0%,-2,-5
c1ccc(Cc2nnc3sc(-c4ccccn4)nn23)cc1,-3.8,-18,1.9,-1.3%[38.3 µM],-4,-26
COc1cc(-c2nc3ccc(N4CCN(C)CC4)cc3[nH]2)cc(OC)c1OC,12,-26,0.5,8.1%,0,-8
Cc1nc2ccccc2c(C)c1CC(=O)N(CC(C)C)c1c(N)n(Cc2ccccc2)c(=O)[nH]c1=O,-4.1,-1,-0.2,2.0%,-13,5
O=c1oc2ccccc2cc1-c1cn(-c2ccccc2)c(=S)[nH]1,6.0,2,0.6,u,6,-3
CCn1c2ccccc2c2nnc(SCN3C(=O)c4ccccc4C3=O)nc21,0.4,6,1.3,-1.8%,-2,-2
COc1cccc(CNC(=O)CSCC(=O)Nc2ccc(C)cc2)c1,1.5,2,1.4,-1.2%,-26,0
COc1ccc(CNC(=O)C(C)n2nc(C)n3c(cc4occc43)c2=O)cc1 (configuration not stated),-1.4,1,-1.1,0.2%,-4,3
C/C(=N\NC(=O)CSc1nc(C)cc(C)n1)c1cccc([N+](=O)[O-])c1,-6.9,15,0.0,-0.2%,-1,23
COc1ccccc1N(CC(=O)NCCSCc1ccc(Cl)cc1)S(C)(=O)=O,-0.1,3,0.7&-0.4,0.1%&1.6%,-4,1
COC(=O)c1ccccc1NC1=C/C(=N\S(=O)(=O)c2cccs2)c2ccccc2C1=O,u,-84*!,1.9&1.0,-1.0%,u,u

Continuation.
SMILES,D2 agonist,Six1-Eya2 blk,TRPML1 ag,PINK1 expr mod,D2 PAM,CtBP-E1A inh
CCN(C(=O)COC(=O)C12CC3CC(CC(O)(C3)C1)C2)c1c(N)n(Cc2ccccc2)c(=O)[nH]c1=O,0.2,2,0.0,2.1%,0,x
CC1(C(=O)Nc2ccccc2Br)CCN1C(=O)CC1CC1 (configuration not stated),-0.9,14,-0.9,0.3%,-6,5
Cc1[nH]n(-c2ccccc2)c(=O)c1C=Nc1ccc(S(=O)(=O)N(C)C)cc1,-1.7,-25,1.2,2.3%,4,-18
COc1ccc(C)cc1NC(=O)CN(c1ccccc1)S(C)(=O)=O,-2.5,-1,-0.9,-1.1%,-8,2
CC1(C)CC(=O)c2sc(NC(=O)c3ccco3)nc2C1,-5.6,-4,-0.2,4.3%,2,-2
CCOc1ccc2oc(C(=O)OCC(=O)NC3CC3)c(C)c2c1,4.4,0,0.0,3.6%,-20,-5
CCCN(CCC)CCNS(=O)(=O)c1ccc2c(c1)oc(=O)n2C,-1.8,2,0.6,-1.3%,-1,10
CSc1cccc(NC(=O)CCCOc2ccc(Cl)cc2Cl)c1,1.0,7,-0.2,-1.0%,6,15
COc1cc(C(=O)OCC2CC(c3ccccc3)=NO2)cc(OC)c1OC (configuration not stated),-3.6,20,1.1,4.8%,2,-4
O=C(c1c[nH]c(C(=O)C(Cl)(Cl)Cl)c1)c1ccc(F)cc1Cl,-3.3,11,1.0,2.1%,-3,7
COc1ccc(C(CNC(=O)c2ccc(C)o2)N2CCOCC2)cc1 (configuration not stated),-2.0,-1,-0.3,0.7%,16,1
CCN(Cc1nc2ccccc2c(=O)[nH]1)Cc1cc(=O)oc2cc(C)c(C)cc12,-2.2,-2,-1.0,2.7%,6,-6
O=C1C2C(c3ccccc3)C=CC(c3ccccc3)C2C(=O)N1c1ccccn1 (configuration not stated),-2.2,4,1.5,-0.8%,16,3
CC(C)(C)NC(=O)NC(=O)CN1CCCc2ccccc21,-3.4,-9,-0.5,4.1%,-5,5
O=C(c1[nH]ncc1-c1ccccc1)C1CO1 (configuration not stated),-9.4,1,0.0,3.2%,-21,-2
COc1ccccc1NC(=O)C1=C(C)Nc2nc(CCCO)nn2C1c1ccc2c(c1)OCO2 (configuration not stated),-1.8,-10,-0.1,-0.8%,-7,-1
COc1ccc(S(=O)(=O)N2CCCC2c2cccs2)cc1 (configuration not stated),-4.5,1,1.6,5.3%,-5,9
CC(=O)c1c(C)[nH]c(C(=O)CSc2nnc(N)s2)c1C,5.4,-7,1.4,-3.0%,-4,-8
CCN(CC)C(=O)Cn1cc(C(=O)C(=O)N2CCN(c3ccc(OC)cc3)CC2)c2ccccc21,-1.8,-4,-0.8,1.5%,-6,-7
Cc1cc[n+](CC(=O)c2ccccc2)c2ccccc12,5.1,-4,-0.2&-0.3,0.6%,-4,x

Further entries:
SMILES,D2 agonist,Six1-Eya2 blk,TRPML1 ag,PINK1 expr mod,D2 PAM,CtBP-E1A inh
CN(C)c1nc(-c2ccccn2)nnc1-c1ccccc1,-1.9,-92*,-0.9,-0.8%,-1,-96*
Cc1cccc(C)c1NC(=O)c1c[nH]c2ccccc12,-0.7,-3,1.2,2.4%,-1,3
CCn1c(SCC(=O)N2CCC(C(N)=O)(N3CCCCC3)CC2)nnc1-c1ccccc1,2.0,5,-0.5,-2.3%,0,-2
Cc1ccc(C(=O)C(C)Oc2ccc3ccc(=O)oc3c2)cc1 (configuration not stated),-6.3,-2,1.9,-0.2%,-13,-3
COCOc1ccc(-c2cc(=O)c3c(OCOC)cc(OCOC)cc3o2)cc1,1.9,-1,x,0.2%,5,8
COc1ccc(S(=O)(=O)NCCOc2cccc3cccnc23)cc1OC,4.0,3,1.1,8.4%,1,4
CCSc1nc2ccccc2n1C(=O)c1ccc(S(=O)(=O)N2CCCCC2)cc1,-2.1,u,-0.3,4.7%[38.3 µM],27,-19
CCCCCOc1ccc(C(=O)NCCC(=O)NCCCC(=O)OCC)cc1,3.8,13,0.1,0.0%,-3,4
COc1ccc(C2/C(=C(/O)c3ccc(F)cc3)C(=O)C(=O)N2CCCN2CCOCC2)cc1OC (configuration not stated),-1.0,-1,x,1.8%,29,x
CC[C@]12c3[nH]c4ccc(Cl)cc4c3CCN1C(=O)[C@@H](CC(=O)NCCN1CCOCC1)C[C@@H]2C(=O)N1CCN(C(=O)c2ccco2)CC1,-1.2,-1,-0.7,0.7%,0,2
CC(=O)Nc1cccc(C(=O)/C=C/c2ccc[nH]2)c1,-0.2,-3,1.2,1.8%,-6,x
O=C(c1cc(-c2ccc3c(c2)OCO3)on1)N1CCOCC1,-3.6,2,1.9,-3.6%[38.3 µM],-3,1
C=C(C)Cn1c(N2CCN(c3ccc(OC)cc3)CC2)nc2c1c(=O)n(C)c(=O)n2C,-8.1,-15,-0.5,1.5%,-5,1
CC(CN(C)C)CN1c2ccccc2CCc2ccccc21 (configuration not stated),-7.8,3,5.5,1.3%,-5,2
CCOc1cc(/C=N\NC(=O)c2ccc(NC(=O)C(C)(C)C)cc2)ccc1OC(=O)c1ccc(OC)cc1,-3.3,-3,-0.1,7.0%,-16,2
CC1CCN(c2c([N+](=O)[O-])c(=O)oc3ccccc23)CC1,-9.8,-2,0.2,0.0%,-3,-19
Cc1ccc(NC(=O)N[C@@H](CC(C)C)C(=O)O)c(C)c1,-7.3,0,-0.5,2.0%,-3,5
O=[N+]([O-])c1ccccc1CNCCCCO,-1.7,4,0.2,2.5%,-11,1
CCc1ccc(S(=O)(=O)Nc2ccc(C)c(NS(C)(=O)=O)c2)cc1,-1.1,-1,-0.3,3.7%,-18,x
COCCNC(=O)c1n[nH]c2ccccc12,4.3,1,-0.2,0.5%,-3,-4

Profiles as entered above. Order of values: D2 agonist, Six1-Eya2 blk, TRPML1 ag, PINK1 expr mod, D2 PAM, CtBP-E1A inh
Profile of COc1ccc(S(=O)(=O)NCCOc2cccc3cccnc23)cc1OC = 4.0, 3, 1.1, 8.4%, 1, 4
Profile of CCCCCOc1ccc(C(=O)NCCC(=O)NCCCC(=O)OCC)cc1 = 3.8, 13, 0.1, 0.0%, -3, 4

(continued)
SMILES,D2 agonist,Six1-Eya2 blk,TRPML1 ag,PINK1 expr mod,D2 PAM,CtBP-E1A inh
O=C(N/N=C\c1ccc(Br)o1)C1COc2ccccc2O1 (configuration not stated),-8.0,-29,0.8,2.0%,-16,-6
Cc1cccc(OCCC(=O)Nc2ccc(C)c(S(=O)(=O)N3CCOCC3)c2)c1,-2.6,4,1.6,1.3%,-3,x
Cc1cc(C)nc(N(C#N)Cc2cccc(Cl)c2)n1,-6.0,6,2.9,2.9%,1,x
CCC(Oc1ccccc1)C(=O)OCC(=O)Nc1sccc1C(N)=O (configuration not stated),-0.8,-1,4.6,1.6%,-1,0
c1cn(-c2ccc(-c3ccnc4ncnn34)cc2)cn1,-0.1,8,-0.4,2.0%,-4,0
COc1cccc(NC(=O)C2C3C=CC4(O3)C2C(=O)N(C(C)C)C4C(=O)NC2CCCCC2C)c1 (configuration not stated),-3.6,4,0.8,0.1%,-1,5
NC(=O)N=Nc1c2[nH]c3ccccc3nc-2c2ccccc12,2.8,u,-0.2,-1.5%,15,-69*
CCN(CC(=O)NCc1cccs1)S(=O)(=O)c1ccc(F)cc1,-2.3,3,-0.3,1.4%,0,7
Cc1ccc(C(=O)NCc2cccnc2)o1,-2.7,-9,-0.4,0.7%,-8,4
CN1CC(C(=O)Nc2ccc(F)c(Cl)c2)CC1=O (configuration not stated),-4.5,-3,-0.1,0.5%,-5,5
COc1cc(C2C(C#N)=C(N)N(c3cccnc3)C3=C2C(=O)CCC3)ccc1O (configuration not stated),2.4,4,0.3,x,10,42
